# A1 apoptosis 2 – A1 inhibition read as caspase activation; MEF A1-2A-BIM cells, caspase-Glo luminescence, 3 h; percent of clofoctol response, DMSO zero; caspase activation, % (test concentration not listed); 24,000 tested, under 10 active; in the data active means caspase activation above about 5.9%;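 further: wells of about 30 µL received 50 nL stock; the first replicate is given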
#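 Material: A1-2A-BIM-expressing MEF cells. Buffer or medium: RPMI-1640 plus 10% FBS. Incubation: cells settled overnight, compound exposure 3 h at 37 °C, 5% CO2. Signal: Caspase-Glo 3/7 luminescence, 1 h at room temperature.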
# * = called active by the depositor. The list is partial, so the mix of outcomes need not match the whole.
SMILES,A1 apoptosis 2
COc1ccc(NC(=O)N(C)C[C@H]2Oc3ccc(NC(=O)Nc4ccc5c(c4)OCO5)cc3C(=O)N([C@@H](C)CO)C[C@H]2C)cc1,-0.3
C[C@@H]1CCCCO[C@@H](CN(C)Cc2ccncc2)[C@@H](C)CN([C@H](C)CO)C(=O)c2cc(NC(=O)CCC(F)(F)F)ccc2O1,1.1
Cc1noc(C)c1NC(=O)N(C)C[C@@H]1Oc2ccc(N(C)C)cc2CC(=O)N([C@H](C)CO)C[C@@H]1C,0.2
C[C@H](CO)N1C[C@H](C)[C@H](CN(C)C(=O)Nc2ccccc2)OCCCC[C@H](C)Oc2ccc(NC(=O)Nc3ccccc3)cc2C1=O,1.1
COc1ccc(NC(=O)N(C)C[C@H]2Oc3ccc(NC(=O)Cc4cn(C)c5ccccc45)cc3C(=O)N([C@H](C)CO)C[C@@H]2C)cc1,0.2
C[C@@H]1CCCCO[C@H](CN(C)C(=O)CCC(F)(F)F)[C@H](C)CN([C@H](C)CO)C(=O)c2cc(NS(=O)(=O)c3ccccc3)ccc2O1,-1.4
CC(C)NC(=O)Nc1ccc2c(c1)C(=O)N([C@@H](C)CO)C[C@@H](C)[C@H](CN(C)C(=O)NC1CCCCC1)OCCCC[C@@H](C)O2,0.1
C[C@H]1CCCCO[C@@H](CN(C)C(=O)Cc2ccccc2)[C@@H](C)CN([C@@H](C)CO)C(=O)c2cc(NS(=O)(=O)c3ccccc3)ccc2O1,-0.4
C[C@@H]1CCCCO[C@@H](CN(C)C(=O)Nc2ccccc2)[C@@H](C)CN([C@H](C)CO)C(=O)c2cc(NC(=O)Nc3ccccc3)ccc2O1,1.2
C[C@H](CO)N1C[C@H](C)[C@@H](CN(C)Cc2ccncc2)OCCCC[C@H](C)Oc2ccc(NS(=O)(=O)c3cccs3)cc2C1=O,1.2
C[C@H]1CCCCO[C@@H](CN(C)C(=O)CCCN(C)C)[C@@H](C)CN([C@@H](C)CO)C(=O)c2cc(NS(C)(=O)=O)ccc2O1,0.0
C[C@H]1CN([C@@H](C)CO)C(=O)Cc2cc(N(C)C)ccc2O[C@H]1CN(C)S(=O)(=O)c1ccc(Cl)cc1,0.3
COc1ccc(S(=O)(=O)N(C)C[C@@H]2Oc3c(NS(=O)(=O)c4ccc(C)cc4)cccc3C(=O)N([C@H](C)CO)C[C@@H]2C)cc1,1.1
Cc1noc(C)c1S(=O)(=O)Nc1ccc2c(c1)C(=O)N([C@@H](C)CO)C[C@H](C)[C@H](CN(C)CC1CC1)OCCCC[C@@H](C)O2,0.0
C[C@H](CO)N1C[C@H](C)[C@H](CN(C)S(=O)(=O)c2ccccc2)Oc2c(NC(=O)C3CC3)cccc2C1=O,0.1
Cc1noc(C)c1S(=O)(=O)N(C)C[C@@H]1Oc2c(NC(=O)C3CCOCC3)cccc2C(=O)N([C@@H](C)CO)C[C@@H]1C,-0.7
O=C(O)CCCCCC(=O)N/N=C/c1ccco1,0.8
C[C@H]1CN([C@@H](C)CO)C(=O)c2cccc(NC(=O)CCCCCC(=O)Nc3ccccc3N)c2O[C@H]1CN(C)Cc1ccc(Cl)c(Cl)c1,1.4
C[C@@H]1CN([C@@H](C)CO)C(=O)CCCn2cc(nn2)CO[C@@H]1CN(C)C(=O)Nc1ccc2c(c1)OCO2,1.3
CNC[C@@H]1Oc2c(NC(=O)NC3CCCCC3)cccc2C(=O)N([C@H](C)CO)C[C@@H]1C,-0.6
C[C@@H]1CN([C@@H](C)CO)C(=O)c2cc(NS(=O)(=O)c3cn(C)cn3)ccc2O[C@@H]1CN(C)C(=O)Nc1ccc2c(c1)OCO2,-0.3
C[C@]1(C(=O)NC2CC2)c2ccccc2C(=O)N(Cc2cc(C(F)(F)F)cc(C(F)(F)F)c2)[C@H]1c1ccc(CO)cc1,1.3
C[C@@H]1CN([C@H](C)CO)C(=O)c2cccc(NC(=O)Nc3cccc4ccccc34)c2O[C@H]1CN(C)S(=O)(=O)c1cn(C)cn1,-0.2
C[C@H](CO)N1C[C@H](C)[C@@H](CN(C)S(=O)(=O)c2ccc3c(c2)OCCCO3)OCc2cn(nn2)CCCC1=O,0.8
CC(C)NC(=O)Nc1ccc2c(c1)C(=O)N([C@@H](C)CO)C[C@H](C)[C@H](CN(C)C(=O)Nc1ccccc1)O2,-0.4
SMILES,A1 apoptosis 2
COc1ccc(CN(C)C[C@@H]2Oc3ccc(NC(=O)Nc4c(C)noc4C)cc3CC(=O)N([C@@H](C)CO)C[C@H]2C)cc1,-0.2
C[C@@H]1CN([C@@H](C)CO)C(=O)c2cc(NC(=O)Nc3ccc(F)cc3)ccc2O[C@@H]1CN(C)C(=O)Nc1ccc(C(F)(F)F)cc1,-0.4
C#CCNC(=O)C1=C[C@H](c2coc3ccccc3c2=O)C[C@H](OCCCCO)O1,-0.7
Cc1noc(C)c1NC(=O)Nc1ccc2c(c1)C(=O)N([C@@H](C)CO)C[C@@H](C)[C@@H](CN(C)Cc1ccc(C(=O)Nc3ccccc3N)cc1)O2,-0.6
C[C@H]1CN([C@@H](C)CO)C(=O)c2cccc(NC(=O)NC3CCCCC3)c2O[C@@H]1CN(C)S(=O)(=O)c1ccccc1,1.5
C[C@@H]1CN([C@H](C)CO)C(=O)CCCn2cc(nn2)CO[C@H]1CN(C)S(=O)(=O)c1ccccc1,-0.1
C[C@@H]1CN([C@@H](C)CO)C(=O)c2cc(NS(C)(=O)=O)ccc2O[C@@H](C)CCCCO[C@H]1CN(C)C(=O)c1ccncc1,-0.4
O=C1c2ccccc2[C@](Cc2ccccc2I)(C(=O)O)[C@H](c2ccc(CO)cc2)N1C1CCCCC1,0.1
C[C@@H]1CCCCO[C@@H](CN(C)CC2CCCCC2)[C@@H](C)CN([C@H](C)CO)C(=O)c2cc(NS(C)(=O)=O)ccc2O1,1.6
C[C@H](CO)N1C[C@H](C)[C@@H](CN(C)C(=O)Nc2ccc(C(F)(F)F)cc2)Oc2ccc(NC(=O)NC3CCCCC3)cc2C1=O,-1.9
C[C@H]1CN([C@@H](C)CO)C(=O)c2cccc(NC(=O)c3ccc(-c4nccs4)cc3)c2O[C@@H]1CN(C)Cc1ccccc1,-1.1
C[C@@H]1CCCCO[C@@H](CN(C)C(=O)Nc2ccc(C(F)(F)F)cc2)[C@@H](C)CN([C@H](C)CO)C(=O)c2cc(NC(=O)Nc3cccc4ccccc34)ccc2O1,-1.5
C[C@H](CO)N1C[C@H](C)[C@@H](CN(C)S(=O)(=O)c2ccc(F)cc2)Oc2ccc(NC(=O)CCCCCC(=O)Nc3ccccc3N)cc2C1=O,1.2
CC(C)NC(=O)Nc1ccc2c(c1)C(=O)N([C@H](C)CO)C[C@H](C)[C@H](CN(C)Cc1ccc(C(F)(F)F)cc1)O2,0.0
COc1ccc(NC(=O)N(C)C[C@H]2Oc3ccc(NC(=O)CCC(F)(F)F)cc3CC(=O)N([C@H](C)CO)C[C@@H]2C)cc1,0.3
CC(C)NC(=O)Nc1cccc2c1O[C@@H](CN(C)S(=O)(=O)c1ccccc1)[C@@H](C)CN([C@H](C)CO)C2=O,0.0
C[C@@H]1CCCCO[C@H](CN(C)C(=O)CCCN(C)C)[C@@H](C)CN([C@H](C)CO)C(=O)c2cc(N(C)C)ccc2O1,-0.5
C[C@H](CO)N1C[C@H](C)[C@@H](CN(C)C(=O)Nc2ccc3c(c2)OCO3)Oc2ccc(NC(=O)NC3CCCCC3)cc2C1=O,-1.0
Cc1noc(C)c1S(=O)(=O)N(C)C[C@H]1OCCCC[C@@H](C)Oc2ccc(NC(=O)Nc3ccc4c(c3)OCO4)cc2C(=O)N([C@@H](C)CO)C[C@@H]1C,0.3
C[C@@H]1CCCCO[C@H](CN(C)C(=O)Cc2ccccc2)[C@@H](C)CN([C@@H](C)CO)C(=O)c2cc(N(C)C)ccc2O1,0.5
C[C@@H]1CCCCO[C@H](CN(C)Cc2ccccc2)[C@@H](C)CN([C@H](C)CO)C(=O)c2cc(NS(=O)(=O)c3cccs3)ccc2O1,0.6
COc1ccc(CN(C)C[C@H]2OCCCC[C@H](C)Oc3ccc(NS(=O)(=O)c4ccc(F)cc4)cc3C(=O)N([C@H](C)CO)C[C@H]2C)cc1,-0.9
C[C@@H]1CN([C@H](C)CO)C(=O)c2cc(NS(=O)(=O)c3ccc(F)cc3)ccc2O[C@@H]1CN(C)C(=O)Nc1ccc(C(F)(F)F)cc1,0.9
C[C@@H]1CCCCO[C@@H](CN(C)Cc2ccncc2)[C@@H](C)CN([C@@H](C)CO)C(=O)c2cc(NS(=O)(=O)c3cccs3)ccc2O1,1.0
C[C@@H]1CCCCO[C@@H](CN(C)S(=O)(=O)c2cccs2)[C@@H](C)CN([C@@H](C)CO)C(=O)c2cc(NC(=O)c3ccccc3)ccc2O1,-0.5

# Structures shown so far that have a COOH group:
SMILES,A1 apoptosis 2
O=C(O)CCCCCC(=O)N/N=C/c1ccco1,0.8
O=C1c2ccccc2[C@](Cc2ccccc2I)(C(=O)O)[C@H](c2ccc(CO)cc2)N1C1CCCCC1,0.1

# Remaining list, next part.
SMILES,A1 apoptosis 2
C[C@H]1CCCCO[C@H](CN(C)Cc2ccncc2)[C@@H](C)CN([C@@H](C)CO)C(=O)c2cc(NS(=O)(=O)c3ccc(Cl)cc3)ccc2O1,-0.9
C[C@@H]1CN([C@@H](C)CO)C(=O)Cc2cc(NC(=O)Cc3ccccc3)ccc2O[C@H]1CN(C)C,1.1
CNC[C@@H]1Oc2c(NC(=O)c3ccncc3)cccc2C(=O)N([C@@H](C)CO)C[C@@H]1C,-1.3
COc1ccc(CN(C)C[C@H]2OCCCC[C@@H](C)Oc3ccc(NC(=O)C4CCCCC4)cc3C(=O)N([C@@H](C)CO)C[C@H]2C)cc1,0.9
C[C@@H]1CCCCO[C@H](CN(C)S(=O)(=O)c2ccccc2)[C@H](C)CN([C@@H](C)CO)C(=O)c2cc(NC(=O)Nc3ccc(C(F)(F)F)cc3)ccc2O1,0.0
C[C@@H]1CN([C@@H](C)CO)C(=O)c2cccc(NC(=O)c3cnccn3)c2O[C@@H]1CN(C)C(=O)Nc1cccc2ccccc12,-0.2
COc1cccc(OC)c1/C=N/NC(=O)CCCCCCC(=O)Nc1ccccc1O,0.2
C[C@H]1CCCCO[C@H](CN(C)Cc2ccc3c(c2)OCO3)[C@@H](C)CN([C@@H](C)CO)C(=O)c2cc(NC(=O)Cc3ccccc3)ccc2O1,0.8
C[C@@H]1CCCCO[C@@H](CN(C)C(=O)NC2CCCCC2)[C@@H](C)CN([C@@H](C)CO)C(=O)c2cc(NC(=O)c3ccccc3)ccc2O1,1.4
C[C@H](CO)N1C[C@H](C)[C@@H](CN(C)C)Oc2ccc(NC(=O)Nc3ccc(C(F)(F)F)cc3)cc2C1=O,-0.3
CC(C)(C)OC(=O)NC1(/C=N/NC(=O)CCCCCCC(=O)O)CCCC1,0.0
C[C@H](CO)N1C[C@H](C)[C@@H](CN(C)C(=O)c2ccncc2)OCCCC[C@H](C)Oc2ccc(NC(=O)c3ccccc3)cc2C1=O,0.9
COc1ccc(S(=O)(=O)N(C)C[C@@H]2Oc3ccc(NS(=O)(=O)c4ccc(Cl)cc4)cc3CC(=O)N([C@H](C)CO)C[C@H]2C)cc1,0.5
C[C@@H]1CN([C@H](C)CO)C(=O)Cc2cc(NC(=O)C3CC3)ccc2O[C@@H]1CN(C)C,0.3
Cc1noc(C)c1NC(=O)Nc1cccc2c1O[C@H](CN(C)C(=O)NC1CCCCC1)[C@@H](C)CN([C@@H](C)CO)C2=O,0.9
Cc1noc(C)c1NC(=O)N(C)C[C@H]1Oc2c(NC(=O)NC3CCCCC3)cccc2C(=O)N([C@H](C)CO)C[C@H]1C,-0.3
COc1ccc(-c2cnc3c(c2)C(=O)N([C@H](C)CO)C[C@H](C)[C@H](CN(C)Cc2cccc(C)c2)O3)cc1,0.1
C[C@@H]1CN([C@H](C)CO)C(=O)c2cc(NS(=O)(=O)c3cccs3)ccc2O[C@@H]1CN(C)S(=O)(=O)c1ccc(Cl)cc1,-1.0
C[C@@H]1CN([C@H](C)CO)C(=O)c2cc(NC(=O)NC3CCCCC3)ccc2O[C@@H](C)CCCCO[C@H]1CN(C)C(=O)Nc1ccc(F)cc1,-0.4
C[C@H](CO)N1C[C@H](C)[C@H](CN(C)C(=O)c2ccccc2)OCCCC[C@H](C)Oc2ccc(NS(=O)(=O)c3ccccc3)cc2C1=O,-0.4
Cc1ccc(S(=O)(=O)N(C)C[C@@H]2OCCCC[C@@H](C)Oc3ccc(NC(=O)NC4CCCCC4)cc3C(=O)N([C@H](C)CO)C[C@H]2C)cc1,0.3

# Copied from the list.
# For A1 apoptosis 2, COc1ccc(S(=O)(=O)N(C)C[C@@H]2Oc3ccc(NS(=O)(=O)c4ccc(Cl)cc4)cc3CC(=O)N([C@H](C)CO)C[C@H]2C)cc1 reads 0.5
# For A1 apoptosis 2, CC(C)(C)OC(=O)NC1(/C=N/NC(=O)CCCCCCC(=O)O)CCCC1 reads 0.0
# For A1 apoptosis 2, COc1ccc(-c2cnc3c(c2)C(=O)N([C@H](C)CO)C[C@H](C)[C@H](CN(C)Cc2cccc(C)c2)O3)cc1 reads 0.1
# For A1 apoptosis 2, Cc1noc(C)c1NC(=O)N(C)C[C@H]1Oc2c(NC(=O)NC3CCCCC3)cccc2C(=O)N([C@H](C)CO)C[C@H]1C reads -0.3
# For A1 apoptosis 2, C[C@@H]1CN([C@H](C)CO)C(=O)c2cc(NC(=O)NC3CCCCC3)ccc2O[C@@H](C)CCCCO[C@H]1CN(C)C(=O)Nc1ccc(F)cc1 reads -0.4
# For A1 apoptosis 2, C[C@@H]1CCCCO[C@H](CN(C)S(=O)(=O)c2ccccc2)[C@H](C)CN([C@@H](C)CO)C(=O)c2cc(NC(=O)Nc3ccc(C(F)(F)F)cc3)ccc2O1 reads 0.0
# For A1 apoptosis 2, C[C@@H]1CN([C@H](C)CO)C(=O)Cc2cc(NC(=O)C3CC3)ccc2O[C@@H]1CN(C)C reads 0.3
